# Bioassay records (PubChem BioAssay)
# Bead autofluor: compound fluorescence in toxin protease inhibitor counterscreen; actives 3.1% (n = 360,000); compound autofluorescence counterscreen, microsphere flow cytometry; active compounds read high; fluorescence intensity (test concentration not listed);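 active = at least 3 SD above the mean of all compounds, about 16000 in these data; inconclusive = too few beads counted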;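 note: 100 nL of 1 mM stock went into each well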
# Sa RN4220 lethal: kills Staphylococcus aureus RN4220; S. aureus RN4220 growth, OD600, 16 h; inhibition, % (no concentration beside the values); actives 0.33% (n = 330,000);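 active = z-score of -3 or lower and OD600 up to 0.18 on both plates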;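 note: plate controls were untreated cells for no effect and reference antibiotic for full effect; stock transfer was 100 nL into about 80 µL; one replicate is shown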
# Mtb hypoxia rep: Mtb hypoxia fluorescent reporter inhibition; AID 1159583; M. tuberculosis hypoxia-regulated fluorescent reporter, fluorescence; fluorescence inhibition, % (no concentration beside the values); actives 0.1% (n = 300,000);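 active = 35 to 45% if threefold the growth effect, above 45% if 1.5-fold the growth effect; inactive = the rest, general growth blockers included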;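 note: wells of about 50 µL received 100 nL stock; 0% = vehicle wells and 100% = reference inhibitor wells; whole bacteria with a GFP reporter of the hypoxia response; strong numbers were not always called active; many hits fall short of the cut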
# PrP UTR inh: inhibition of PrP 5' UTR reporter expression; actives 0.35% (n = 340,000); cell-based PrP 5' UTR mRNA reporter, plate reader; inhibition, % (test concentration not listed);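 active = every replicate at 50% or more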;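 note: 0 = median of the neutral control wells; tested in H4 reporter cells; numbers are from one replicate; inactives centre near -14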
# Sa ugtP lethal: kills S. aureus RN4220 lacking UgtP; growth inhibition, % (concentration not given with the values); S. aureus RN4220 ugtP deletion, OD600 growth, 16 h; some inactives read as strong as hits; AID 1259309; actives 0.54% (n = 330,000);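 active = z-score under -3 and OD600 up to 0.15 on both plates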;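 note: plate controls were untreated wells for no effect and antibiotic for full effect; wells of about 80 µL received 100 nL stock; the first replicate is given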
# BJeLR lethal: kills HRASV12-expressing BJeLR cells | actives 0.17% (n = 300,000) | BJeLR (HRASV12) viability, CellTiter-Glo ATP luminescence, 48 h; reference of the scale not given here | inhibition, % (concentration not given with the values);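 active = replicate mean above 50%; inconclusive = above 50% but judged a plate artefact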;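 note: 50 nL library stock added to about 25 µL; numbers are from one replicate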
# Mtb hypoxia rep growth: recorded beside Mtb hypoxia rep, whose call it bears; growth inhibition, %; measured here: M. tuberculosis growth (absorbance);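 0% = vehicle and 100% = reference antibiotic; read after six days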
# * marks the source's active call; other numbers are inactive results; ? = inconclusive; . = no result given.
# Every second line gives: Mtb hypoxia rep growth	Mtb hypoxia rep	Sa ugtP lethal	Sa RN4220 lethal	BJeLR lethal	Bead autofluor	PrP UTR inh
(1) O=C(O)CCN1C(=O)/C(=C\c2ccc(-c3nc4ccccc4s3)o2)SC1=S
    .	.	101*	109*	-6	2421	-22
(2) Cc1ccc2c(c1)N(CC(=O)NCc1ccco1)C(=O)C(C(C)C)O2 (stereo unspecified)
    -3	9	-3	3.3	7	2766	-19
(3) Cc1ccc(Cn2ccc(NC(=O)c3cc(-c4ccc(Cl)cc4)on3)n2)cc1
    5	4	4	1.2	4	15942	-17
(4) COC(=O)c1ccc(CN2C(=O)NC3(CCC(C)CC3)C2=O)o1 (stereo unspecified)
    .	.	-1	2.1	-1	2831	-17
(5) S=C(Nc1ccc(Nc2ccccc2)cc1)N1CCN(c2ncccn2)CC1
    2	-1	9	2.2	-4	5375	-24
(6) CCOc1ccc(C2=C(C=Nc3c(C)n(C)n(-c4ccccc4)c3=O)C(c3ccc(F)cc3)c3ccccc3O2)cc1 (stereo unspecified)
    .	.	9	-5.5	-8	3043	-31
(7) Cc1cccc(C)c1NC(=O)CSc1ncnc2[nH]ncc12
    3	4	2	2.3	.	3647	-9
(8) Cc1cccc[n+]1CC(=O)Nc1cccc([N+](=O)[O-])c1
    0	3	-4	1.8	-1	2049	-7
(9) CCCNC(=O)N1C2CCC1C(C(=O)OC)=C(c1cccc(Cl)c1)C2 (stereo unspecified)
    3	3	-5	4.1	.	.	.
(10) Cc1nnc(NCCc2ccccc2)[nH]c1=O
    3	-2	3	2.9	5	9752	-24
(11) Cc1ccc2nc(-c3ccncc3)cc(C(=O)NCCc3ccc(F)cc3)c2c1
    -3	4	-2	-6.0	2	3444	-25
(12) CCOc1c2ccc(C(=O)NCCc3ccc(C)cc3)cc2nn1CC
    .	.	.	.	-2	3502	-7
(13) O=C(c1ccccc1)c1ccc2nc(Nc3ccccc3)c3nncn3c2c1
    5	10	-4	3.1	0	4611	12
(14) COc1ccccc1CNC(=O)COC(=O)c1ccc(N2CCCC2=O)cc1
    9	6	1	0.9	.	8876	-15
(15) COc1ccccc1C1N=C(c2ccccc2C)NO1 (stereo unspecified)
    5	7	2	3.4	5	6202	-156
(16) O=C(C1CCCN(S(=O)(=O)c2ccc(F)cc2)C1)N1CCCCC1 (stereo unspecified)
    12	1	1	1.0	-1	5444	-7
(17) Cc1ccc(C(=O)NCC(=O)NCC(c2cccs2)N2CCOCC2)cc1C (stereo unspecified)
    -3	-2	-2	0.9	3	4744	-3
(18) OCc1nc2ccccc2n1Cc1ccc(Cl)cc1
    -4	-3	-1	-0.8	-9	3757	-15
(19) CCN(CC)c1ccc(NC(=O)OC)cc1
    43	19	0	5.4	7	3351	-15
(20) CC1CCN(S(=O)(=O)c2ccc3[nH]c(=O)[nH]c3c2)CC1
    3	2	0	-2.4	-1	3816	-33
(21) CC(C(=O)Nc1ccc(C#N)cc1)N(C)CC(=O)Nc1cccc(F)c1 (stereo unspecified)
    3	10	-1	0.9	3	3291	-17
(22) C[C@H]1CN=C(Nc2ccccc2)N1CC1CCCCCC1
    .	.	.	.	-13	4754	-6
(23) COc1ccc(-c2cc(=O)oc3cc(OC(C)C(=O)NCCCn4ccnc4)ccc23)cc1 (stereo unspecified)
    .	.	3	3.8	5	6092	-8
(24) CCNC(=S)NN=Cc1ccc(-c2ccccc2)o1
    11	18	-10	-2.3	.	.	.
(25) COc1ccc(Cl)cc1NS(=O)(=O)c1cccc(C(=O)NCC(C)(C)N2CCOCC2)c1
    35	5	1	4.3	.	3915	-10
(26) COc1ccc(C(=O)O)cc1F
    .	.	-1	2.4	-8	4659	-3
(27) CCCCNc1cc(F)nc(N)n1
    3	6	6	-0.1	-13	2631	-26
(28) Cc1ccc(C(=O)C2=C(O)C(=O)N(c3ncccn3)C2c2ccc(Cl)cc2)o1 (stereo unspecified)
    .	.	4	1.8	-3	2676	-27
(29) COc1ccc(C)cc1S(=O)(=O)Nc1cccc(Cl)c1Cl
    .	.	12	4.4	-2	2447	27
(30) Cc1cc(C(=O)NCc2ccc(Cl)cc2)n(-c2ccccc2)n1
    -2	3	-4	10	19	4404	-9

# A few values from above:
# COc1ccc(C)cc1S(=O)(=O)Nc1cccc(Cl)c1Cl @ BJeLR lethal: -2
# CCCCNc1cc(F)nc(N)n1 @ Sa ugtP lethal: 6
# CCNC(=S)NN=Cc1ccc(-c2ccccc2)o1 @ Mtb hypoxia rep growth: 11

# Later entries
# Every second line gives: Mtb hypoxia rep growth	Mtb hypoxia rep	Sa ugtP lethal	Sa RN4220 lethal	BJeLR lethal	Bead autofluor	PrP UTR inh
(31) Cc1cc(C(=O)COC(=O)CNC(=O)c2ccc(F)cc2)c(C)n1Cc1ccco1
    2	7	-2	5.2	-14	2615	-8
(32) CC(=O)N(c1ccc(N(C(C)=O)S(=O)(=O)c2ccccc2)cc1)S(=O)(=O)c1ccccc1
    4	11	0	-1.7	-2	3060	-3
(33) O=c1[nH]n(-c2ccc(F)cc2)c2ncccc12
    -5	-8	-7	-1.0	-3	9058	-19
(34) C(=NNC1=Nc2cccc3cccc1c23)c1cccnc1
    11	9	21	17	.	.	.
(35) NC(=O)C1CCN(c2oc(-c3cccs3)nc2S(=O)(=O)c2ccc(Br)cc2)CC1
    3	12	12	5.5	.	3697	-10
(36) CC1CCN(c2ccc(N3C(=O)C4CCCCC4C3=O)cc2[N+](=O)[O-])CC1 (stereo unspecified)
    .	.	5	2.9	-9	2318	-21
(37) Cc1nc2ccc(Nc3ccncc3)cc2s1
    -1	2	0	3.8	-2	4942	-13
(38) COP(=S)(OC)c1c(C)nn(CCC#N)c1NC(=O)c1ccc(Cl)cc1
    2	3	3	3.4	-3	3539	-25
(39) CCc1cc(C(=O)Nc2ncccc2O)sc1C
    -3	8	-6	0.7	3	4905	16
(40) Cc1cccc(NC(=O)CCCN2C(=O)C3CC=CCC3C2=O)c1 (stereo unspecified)
    2	7	6	3.4	12	?	2
(41) Cc1nn(Cc2ccccc2)c(C)c1C(=O)OCC(=O)c1cc(C)n(CC(F)(F)F)c1C
    .	.	.	.	-6	?	0
(42) Cc1cc(NC(=O)CCl)no1
    28	19	6	4.4	3	3439	0
(43) CCN(CC(=O)Nc1cc(Cl)ccc1C)C(=O)CCOc1ccc(C)cc1
    32	25	-5	3.3	-19	6662	-14
(44) COc1ccc(NC(=O)NCCCCc2ccccc2)cc1OC
    -5	9	5	-1.8	-2	4407	-16
(45) Cc1cccc(Nc2cc(C)c3c(O)cccc3n2)c1C
    .	.	.	.	3	5436	-58
(46) O=C(CCCN1C(=O)c2cccnc2Oc2ccc(Cl)cc21)N1CCCCC1
    4	12	6	2.1	-18	5087	-8
(47) NC(=O)c1c(NC(=O)c2ccc(N3C(=O)CCC3=O)cc2)sc2c1CCCC2
    13	3	-8	-0.1	.	5501	-6
(48) CCCc1n[nH]c(=O)c2c1nnn2Cc1ccccc1F
    -3	2	4	3.6	-1	3763	-15
(49) CCN=C(Nc1ccc2c(c1)OCO2)SC1CC(=O)N(c2ccccc2F)C1=O (stereo unspecified)
    10	11	0	2.0	1	3062	-16
(50) Cc1ccc(S(=O)(=O)N2CCOCC2)cc1NC(=O)c1cc([N+](=O)[O-])ccc1N1CCOCC1
    0	-13	0	1.9	-5	5988	-24
(51) O=C1C=C(c2cccc(Cl)c2)C[C@@H](c2ccc(F)cc2)C1
    6	-6	-10	14	.	3759	9
(52) Cc1ccccc1C1C(C#N)=C2N=C(N)c3c(sc4c3CCCCC4)N2C2=C1C(=O)CC(C)(C)C2 (stereo unspecified)
    11	-2	-29	-7.1	-7	6644	-24
(53) COc1ccc(/C=C/C(=O)Nc2ccccc2C(=O)NCC(c2ccc(OC)cc2)N(C)C)cc1 (stereo unspecified)
    .	.	.	.	-7	6597	-20
(54) NS(=O)(=O)c1cccc(NC(=O)CNC(=O)CC23CC4CC(CC(C4)C2)C3)c1
    5	-5	7	8.2	6	3307	-24
(55) CCCc1cc(=O)[nH]c(SCC(=O)N(CC)C2CCS(=O)(=O)C2)n1 (stereo unspecified)
    7	6	-6	2.9	-5	3799	-3
(56) CCOCCCNCC(=O)N1CCN(S(=O)(=O)c2ccc(C)cc2)CC1
    1	0	12	2.4	11	10873	-7
(57) CCn1c(O)c(/C=N/N=C2CCCCC2)c2cc(C3=NNC(=O)CC3)ccc21
    .	.	.	.	-3	5560	-28
(58) COc1ccc2c(c1)C=C(C(=O)NCc1ccc(Cl)cc1)CO2
    5	0	0	-8.0	-2	20111*	-17
(59) COC(=O)c1cc(NC(=O)C(C)c2ccc(CC(C)C)cc2)ccc1O (stereo unspecified)
    0	15	-10	-3.4	-2	3435	-41
(60) CC(=O)N1CCOc2ccc(S(=O)(=O)N3CCC(C(=O)Nc4ccc(C)c(C)c4)CC3)cc21
    11	14	10	1.6	-12	5201	-16
(61) CCOC(=O)NN=Cc1ccc([N+](=O)[O-])o1
    2	-16	19	21	.	.	.
(62) Cc1nc2ccccc2n1C1CC(=O)N(N(C)C)C1=O (stereo unspecified)
    13	3	0	6.3	-5	10745	-31
(63) CC(=O)C=NNc1ccccc1
    -7	-1	-7	-1.7	.	.	.
(64) CCOC(=O)C1CCN(C(c2cccc(F)c2)c2sc3nc(C)nn3c2O)CC1 (stereo unspecified)
    14	7	-9	-6.2	-5	6353	-26
(65) COc1cc(CCC(=O)Nc2nnc(C)s2)cc(OC)c1OC
    0	-2	2	2.0	17	3663	-23
(66) CN(C)CC1CCCCC1OC(=O)c1ccc(Cl)cc1 (stereo unspecified)
    -6	9	0	1.9	0	9344	-6
(67) CCNc1nc(Cl)nc(N(NC(C)=O)C(C)C)n1
    6	14	13	4.3	0	6123	-18
(68) Cc1ccccc1CC1(CO)CCCN(Cc2ccc3c(c2)OCCO3)C1 (stereo unspecified)
    -6	3	2	4.4	7	4292	-10
(69) Cc1cc(Cl)c(O)c(-n2nc3ccccc3n2)c1
    -2	0	-3	7.1	-4	4555	-47
(70) O=C(OCc1nnc(-c2ccccc2)o1)c1cc(=O)[nH]c2ccccc12
    9	-2	4	5.6	-3	.	-8
(71) CSc1nc(C(=O)N2CCCC(N3CCN(c4ccccc4C)CC3)C2)cs1 (stereo unspecified)
    12	2	5	0.2	-5	5461	-15
(72) Cc1ccccc1C(=O)Nc1nnc(-c2ccco2)s1
    6	15	-5	9.4	-12	4556	32
(73) COc1ccc(/C=C/C(=O)CC(O)(c2ccccc2)C(F)(F)F)cc1 (stereo unspecified)
    14	11	1	4.5	7	9745	-16
(74) COc1cc(CN2CC(=O)N(c3cc(Cl)ccc3C)C2=S)cc(OC)c1OC
    3	11	-8	2.9	-5	3717	-20
(75) Cc1ccccc1/C=N/N1C(=O)CSC1=S
    .	.	.	.	-2	3903	-10
(76) COc1ccc(C)cc1NC(=O)CCCN1C(=O)C2CC=CCC2C1=O (stereo unspecified)
    .	.	.	.	-2	6481	-10
(77) O=S(=O)(c1ccccc1F)N1CCc2ccccc2C1
    3	10	3	4.2	7	3906	-14
(78) O=C(NNC(=O)c1ccccc1F)c1cccc(Cl)c1
    1	2	4	1.0	.	25813*	-36
(79) CCCN(CC#CC(O)(c1ccccc1)c1cccnc1)CCC (stereo unspecified)
    13	16	5	7.2	1	4499	-26
(80) CCN(CC)CCNc1nc(-c2ccco2)c2c(c1C#N)CC(C)(C)OC2
    7	18	7	2.0	.	8895	-31
(81) Cc1ccc(CNC(=O)c2nc3nc(C)cc(C)n3n2)cc1
    5	13	-4	-6.3	-6	2917	-17
(82) CC(C)n1nc(C(=O)Nc2ccccc2N2CCOCC2)c2ccccc2c1=O
    1	10	-2	4.7	-6	2036	-22
(83) Cc1cc(C)cc(NC(=O)c2cnn(-c3ccccc3)c2C2CCNCC2)c1
    11	-8	-4	-2.0	-8	2081	-20
(84) O=C(Nc1nnc(-c2ccco2)o1)c1ccc(N2C(=O)CCC2=O)cc1
    -3	-3	6	2.9	-10	4164	-14
(85) Cn1c(=O)c2c(ncn2CCCl)n(C)c1=O
    .	.	0	2.8	3	5532	-3
(86) COc1ccc(C)cc1NC(=O)C1CC(=O)OC12CCCCC2 (stereo unspecified)
    2	4	2	8.5	11	22901*	-6
(87) O=C(NN=Cc1ccc2c(c1)OCCO2)c1ccncc1
    .	.	6	0.3	.	.	.
(88) Cc1ccccc1NC(=O)N1C2CCCC1CC(NC(=O)C1CC1)C2 (stereo unspecified)
    8	2	-2	4.2	2	3899	-28
